# Marburg entry inh = blocks Marburg virus binding to or entry into cells. Marburg virus pseudotyped entry inhibition, cell reporter; control for the full effect not named in the record; about a third of the inactives were read at about 46 µM. Potency, µM (titrated, usually from 37.8 µM), for the others: at the top dose activity change, negative = inhibition, actives largely listed as inhibitors. 300,000 tested, 1.8% active; active = well fitted inhibition curve with a large enough effect; inconclusive = small, poorly fitted or top-dose-only effect, or effect the other way; inactive = flat fitted curve, though single readings scatter; tested in HEK293 cells; about a fifth of its hits are not listed in these tables; note: % is set by controls: 0 for no effect and ±100 for the full control effect; luciferase read-out
# SARS PLpro yeast = blocks SARS-CoV papain-like protease in a yeast assay. S. cerevisiae expressing SARS-CoV PLpro, growth rescue; control for the full effect not named in the record. Potency, µM (highest dose often 32.9 µM), for inactives: top-dose activity, positive = growth rescue. 330,000 tested, 0.19% active. AID 485353; note: 0% is about no effect; nearly all actives have a fitted effect of over 55% in size; growth read by luminescence after 48 h
# Lassa entry inh = inhibitors of Lassa virus binding or cell entry; Lassa virus pseudotype entry inhibition, cell reporter; control for the full effect not named in the record; Potency, µM (titrated, usually from 37.9 µM), for inactives: at the top dose activity change, negative = inhibition, actives largely listed as inhibitors; 300,000 tested, 1.2% active; AID 540256; active means well fitted inhibition curve with a large enough effect; inconclusive means small, poorly fitted or top-dose-only effect, or effect the other way; inactive means flat fitted curve, though single readings scatter; tested in HEK293 cells; note: % is set by controls: 0 for no effect and ±100 for the full control effect; nearly all actives have a fitted effect of over 50% in size; luciferase read-out
# Cruzain inh noDet = cruzain (T. cruzi) inhibition without detergent. P25779. purified cruzain, Z-FR-AMC fluorescence, no detergent. Potency, µM, for inactives: max response, negative = inhibition, actives largely listed as inhibitors. 200,000 tested, 2.3% active. AID 1476; active = well fitted curve in the direction sought with a large enough effect; inconclusive = small, poorly fitted or top-dose-only effect, or another doubt; inactive = no such curve, though single readings can be large; an effect the other way counts as inactive or inconclusive;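 note: plate controls were enzyme without inhibitor for no effect and buffer without enzyme for full effect; nearly all actives have a fitted effect of over 40% in size; top concentration of the series not given in the record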
# Target sequence (P25779 123-467 limits assumed): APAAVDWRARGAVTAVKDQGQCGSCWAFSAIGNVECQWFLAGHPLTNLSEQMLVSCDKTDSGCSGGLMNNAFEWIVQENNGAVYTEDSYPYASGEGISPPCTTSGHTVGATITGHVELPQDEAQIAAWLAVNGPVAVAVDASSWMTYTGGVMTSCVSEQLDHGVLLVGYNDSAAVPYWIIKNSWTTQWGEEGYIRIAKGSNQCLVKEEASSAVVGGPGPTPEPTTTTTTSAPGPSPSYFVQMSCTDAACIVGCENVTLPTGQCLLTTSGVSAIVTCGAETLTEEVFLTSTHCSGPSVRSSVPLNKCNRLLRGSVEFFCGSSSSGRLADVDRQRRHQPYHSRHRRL
#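 Purified cruzain at 1.5 nM, pre-incubated 15 min with compound at room temperature in 100 mM sodium acetate pH 5.5, 5 mM DTT, 0.00005% Triton X-100. Reaction started with 2 uM Z-FR-AMC; AMC fluorescence increase over 60 s gives rate.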
# RE007 growth inh = less growth of the S. pombe RE007 Vpr strain; S. pombe RE007 Vpr strain, BacTiter-Glo ATP luminescence, 24 h; control for the full effect not named in the record; Potency, µM (top dose mostly 92.2 µM), inactives show top-dose activity change, negative = less growth; 360,000 tested, 0.21% active; active = well fitted falling curve with a large enough effect; inconclusive = small, poorly fitted or top-dose-only effect; inactive = no such curve, though single readings can be large or run the other way;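 note: % is set by controls: 0 for no effect and ±100 for the full control effect; nearly all actives have a fitted effect of over 50% in size; the assay follows cell death caused by Vpr and the record does not say whether a fall means rescue or toxicity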
#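 Fission yeast RE007 carrying one integrated HIV-1 vpr copy, seeded at OD 0.01 in PMG+AL medium with 23 nL pinned compound. Grown 24 h at 30 degrees; viability read by BacTiter-Glo luminescence after 5 min.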
# Cruzain Triton = inhibitors of Trypanosoma cruzi cruzain with detergent. P25779. purified cruzain, Z-FR-AMC fluorescence, 0.01% Triton. Potency, µM, inactives show max response, negative = inhibition, actives largely listed as inhibitors. 200,000 tested, 0.43% active. AID 1478; active = well fitted curve in the direction sought with a large enough effect; inconclusive = small, poorly fitted or top-dose-only effect, or another doubt; inactive = no such curve, though single readings can be large; an effect the other way counts as inactive or inconclusive;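 note: plate controls were neutral wells for no effect and buffer without enzyme for full effect; nearly all actives have a fitted effect of over 40% in size; top concentration of the series not given in the record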
#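 Detergent-containing arm of a paired screen for aggregation-based inhibition: 0.01% Triton X-100 present. Cruzain at 1.5 nM cleaved 2 uM Z-FR-AMC at pH 5.5 with 5 mM DTT; AMC fluorescence gain over 60 s measured activity.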
# NS1 inh = blocks influenza NS1 protein function. 270,000 tested, 0.4% active. Potency, µM (highest dose often 46.1 µM), for inactives: at the top dose activity, positive = more growth. S. cerevisiae slowed by influenza A NS1, growth recovery by OD600. AID 2326; note: actives are rising curves; nearly all actives have a fitted effect of over 50% in size
#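 Recovery from NS1-induced slow growth read by OD600 in budding yeast switched to galactose assay medium (pH 6.0, -URA) at 1:100 dilution. Compound 23 nl per well; the matching strain lacking NS1 serves as control.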
# 2A StopGo = FMDV 2A StopGo reporter, luciferase signal; AID 1159524; 410,000 tested, 1.2% active; Potency, µM (highest dose often 57.9 µM), without a hit: at the top dose signal change, negative = less light; human cells with a luciferase reporter of 2A StopGo recoding; control for the full effect not named in the record; active = well fitted falling curve with a large enough effect; inconclusive = small, poorly fitted or top-dose-only effect; inactive = no such curve, though single readings can be large or run the other way; tested in HEK293T cells; note: % is set by controls: 0 for no effect and ±100 for the full control effect; nearly all actives have a fitted effect of over 45% in size; luciferase light after 4 h
# * hit, by the source's call; ? = inconclusive; . = not tested or not shown; & = joins results of further samples; [ ] = remark or other dose. Unless noted, calls come from the whole dose curve; as a rule, active means well fitted rising curve with a large enough effect; inconclusive means small, poorly fitted or top-dose-only effect; inactive means no such curve, though single readings can be large or run the other way. Potency is the fitted concentration of half-maximal effect.
SMILES,Marburg entry inh,SARS PLpro yeast,Lassa entry inh,Cruzain inh noDet,RE007 growth inh,Cruzain Triton,NS1 inh,2A StopGo
CC(=O)Nc1c(NC(=O)CC#N)[nH]c2c(c1=O)c(=O)n(C)c(=O)n2C,-11%[46.1 µM],0%,16%[46.1 µM],.,4%,.,2%,-6%
COc1ccccc1C(=O)NC(=O)COC(=O)CNC(=O)c1ccc(Cl)c([N+](=O)[O-])c1,13%[46.1 µM],2%,-2%,.,-7%,.,.,-5%
O=C1CCC(C(=O)N2CCCCO2)CN1Cc1cccc(F)c1 (stereo not given),.,-5%,.,.,-1%,.,6%,8%
Cc1ccc(O)c(NC(=O)C2CC(c3c(F)cccc3Cl)=NO2)c1 (stereo not given),-20%,0%,-5%,-11%,-10%[3.69 µM],-7.3%,-4%,20%
CC[n+]1c(/C=C2\Sc3ccccc3N2C)ccc2cccc(C)c21,?,-5%,?,.,?,.,-74%,4.5µM*
Nc1ccc2c(c1)C/C(=C/c1ccco1)C2=O,?,-53%,1%,?,?,-15%,1%,-7%
Cc1ccc(OCC(=O)Nc2nonc2-c2ccc(Br)cc2)cc1C,10%[46.1 µM],.,1%[46.1 µM],-2%,.,-3.6%,.,-16%
O=C(Nc1cccc2c1CCCC2)c1cc([N+](=O)[O-])ccc1Cl,-24%,0%,?,-17%,-25%,6.8%,12%,?
CCOC(=O)c1cnc(=O)[nH]c1C,27%,3%,14%,4%,37%,6.5%,4%,0%
Cc1ccc(NC(=O)CSc2ccc(-c3cccnc3)nn2)c(C)c1,8%[46.1 µM],2%,-20%[46.1 µM],.,6%,.,3%,-6%
COc1ccccc1CNC(=O)CN1C(=O)NC(C)(c2ccc(C)cc2)C1=O (stereo not given),?,-1%,.,.,-9%,.,-5%,1%
C/C(=N\NC(=O)c1ccc(CN2CCOCC2)cc1)c1ccc(NC(=O)c2ccccc2)cc1,?,-6%,?,.,-16%,.,.,18%
O=C1CC(=O)N(c2ccccc2)C(=O)N1,24%,.,3%,.,4%,.,.,-14%
Cc1ccc(S(=O)(=O)c2nc(S(C)(=O)=O)sc2N2CCC3(CC2)OCCO3)cc1,.,0%,.,.,-8%,.,-3%,21%
COCCNC(=O)c1ccc2c3n(nc2c1)-c1ccc(Cl)cc1CO3,.,-3%,.,.,0%,.,-5%,30%
O=C(N=Nc1c(O)[nH]c2ccccc12)c1cc(NS(=O)(=O)c2cccs2)cc(NS(=O)(=O)c2cccs2)c1,-16%[46.1 µM],-3%,-14%,.,9%,.,.,-8%
COC(=O)c1[nH]c2ccccc2c1NC(=O)CN1CCN(C(=O)c2ccco2)CC1,-15%,-3%,5%,7%,-9%,-0.3%,0%,?
CN(C)S(=O)(=O)c1ccc2nnn(O)c2c1,7%,3%,9%,.,4%,.,.,-4%
CCOc1ccc(NC(=O)C(=O)NCCCn2ccnc2)cc1,4%,-1%,-5%,4%,-11%,5.6%,7%,.
CC(=O)Nc1ccc(NC(=O)C(C)OC(=O)CCCN2C(=O)c3cccc4cccc(c34)C2=O)cc1 (stereo not given),10%,1%,-21%,.,0%,.,.,-5%
CCc1ccccc1NC(=O)C1CCCN(c2ncccn2)C1 (stereo not given),-1%[46.1 µM],-2%,3%[46.1 µM],.,-12%,.,2%,-5%
O=S(=O)(Nc1ccc(N2CCOCC2)cc1)c1c(F)cc(F)cc1Br,18%[46.1 µM],14%,?,.,-7%,.,0%,-7%
O=C1CC(c2c(F)cccc2Cl)c2c(c3ccccc3oc2=O)O1 (stereo not given),0%[46.1 µM],.,3%[46.1 µM],9%,.,-1.5%,.,-14%
CN1C(=O)C(CC(=O)Nc2ccc(F)cc2)N(NC(=O)c2cccc(F)c2)C1=S (stereo not given),?,3%,13%,.,1%,.,6%,-9%
CCOc1ccc2c(c1)c(=O)c(C(=O)c1ccc3c(c1)OCO3)cn2Cc1cccc(F)c1,?,.,-17%[46.1 µM],-17%,.,-2.8%,.,-17%
O=C(COC(=O)Cc1cccc(C(F)(F)F)c1)NC1CC1,5%,-3%,-2%,.,-6%,.,.,-4%
COc1ccc(OCC(=O)Nc2ccc(NC(=O)c3ccccc3Cl)c(OC)c2)cc1,12%[46.1 µM],-6%,17%[46.1 µM],.,-6%,.,-15%,-3%
COc1ccc(NC(C)C(=O)Nc2ccc(C(C)(C)C)cc2)cc1Cl (stereo not given),-7%,-16%,-22%,-6%,?,-1.7%,10%,-4%
O=C(COc1ccc(Br)cc1)N1CCN(Cc2ccncc2)CC1,4%[46.1 µM],-4%,-19%,5%,7%,7.3%,-9%,-6%
COc1cc(O)c(C(CCN2CCCC2)c2cc(OC)c(OC)c(OC)c2)c(OC)c1 (stereo not given),.,-5%,.,.,1%,.,-9%,-9%
CCOC(=O)N1CCN(c2ncnc3c2[nH]c2ccc(F)cc23)CC1,?,2%,6%,4%,5%,-5.7%,-2%,14µM*
COc1cc(C(C)=O)ccc1OCCCOc1cccc2cccnc12,-9%[46.1 µM],-6%,5%[46.1 µM],.,-1%,.,-44%,-13%
CSc1nnc(-c2sc(-c3ccccc3)nc2C)n1C,5%,-1%,9%,-5%,19%,-5.6%,-15%,44%[activator]
CC(C)[C@H](NC(=O)OCc1ccccc1)C(=O)OCC(=O)N1CCCCC1,?,.,-6%[46.1 µM],.,-7%,.,.,20%
OCC1OC(n2cnc3c(SCc4ccccc4)ncnc32)C(O)C1O (stereo not given),?,.,?,.,1%,.,.,17%
O=c1c2[nH]c3ccccc3c2ncn1CCCn1ccnc1,19%,?,-15%,5%,9%,-2.2%,4%,-16%
C/C(CCC(=O)OC[C@H]1O[C@H](C#Cc2ccccc2)C=C[C@@H]1Oc1ccc(C)cc1)=N\OC[C@@H](O)[C@H]1O[C@@H]2OC(C)(C)O[C@@H]2[C@H]1O,-2%[14.2 µM],-12%,?,?,.,-3.8%,16%,.
O=c1cc(-c2ccc(O)cc2)oc2c(C3OCC(O)C(O)C3O)c(O)c(C3OC(CO)C(O)C(O)C3O)c(O)c12 (stereo not given),.,1%,.,.,-7%,.,2%,-14%
COc1cc(/C=C2\SC(=S)N(NC(=O)c3cccc(O)c3)C2=O)ccc1O,4%[46.1 µM],-2%,18%[46.1 µM],.,-20%,.,?,5%
NC(=O)C1CCCN1S(=O)(=O)c1ccc2ccccc2c1 (stereo not given),.,2%,.,.,1%,.,1%,-11%
COc1ccccc1/C=N/NC(=O)c1cccc2ccccc12,-6%,8%,-29%,.,1%,.,5%,-3%
CCOc1ccc(/C(=N\O)C(C)NO)cc1 (stereo not given),9%,4%,6%,-12%,11%,-2.9%,-4%,.
Cc1cc(NC(=O)CCC(=O)N(c2ccc(F)cc2)C(C(=O)NC2CCCC2)c2cccnc2)no1 (stereo not given),?,1%,0%,.,7%,.,8%,-5%
Cc1ccc(NC(=O)Cn2c(=O)nc(-c3ccccc3F)c3cc(Cl)ccc32)c(Br)c1,-28%[46.1 µM],.,?,13%,.,-3.7%,.,-22%
Cc1csc2nc(CSc3nc4ccccc4o3)cn12,-1%&-1%,-18%,?,-1%,?,-0.6%,-136%,24%
CCOC(=O)N1CCN(C(=O)CSc2nc(=O)n3ccccc3n2)CC1,19%,-5%,5%,.,-10%,.,.,3%
COc1ccccc1C(=O)N1CCN(C2CCN(Cc3ccccc3)CC2)CC1,11%[46.1 µM],.,9%,7%,3%,3.0%,-22%,-1%
Cc1ccc(-c2cc(C(=O)N/N=C/c3ccc(Cl)cc3)n[nH]2)o1,-15%[46.1 µM],-11%,.,.,15%,.,-23%,-16%
COc1ccc(CN(Cc2cccnc2)S(=O)(=O)c2ccc(-n3cnnn3)c(C)c2)cc1OC,?,0%,0%,?,9%,0.9%,-17%,.
CSc1nnc(C)c(=O)n1COC(=O)COc1ccc(Cl)cc1,5%[46.1 µM],-2%,-1%[46.1 µM],.,-7%,.,.,-13%
Cc1ccc(C)c(OCC(=O)Nc2nonc2NC(=O)COc2cc(C)ccc2C)c1,-7%,.,-1%,-28%,-1%,-1.7%,-7%,?
O=C1c2ccccc2C(Nc2ccc3c(c2)OCCO3)N1Cc1ccccc1 (stereo not given),.,-8%,.,-4%,7%,-8.7%,-48%,-28%
CCOC(=O)C[n+]1c(C)csc1C,-3%,-3%,0%,1%,4%,0.3%,0%,-13%
Nc1cccc(CCc2ccncc2)c1,6%[46.1 µM],0%,13%[46.1 µM],.,-3%,.,-9%,0%
CCOc1ccc(NC(=O)Cn2c(=O)n(Cc3ccco3)c(=O)c3oc4ccccc4c32)cc1,.,.,-1%[46.1 µM],-16%,.,-7.0%,.,-7%
O=C1NC2=C(C(=O)CCC2)C(c2ccc3ncccc3c2)N1 (stereo not given),-8%,2%,-3%,-6%,1%,-5.3%,?,.
O=C(c1ccccc1)c1c[nH]c(C(=O)NCCCN2CCOCC2)c1,0%,0%,-2%,6%,-6%[3.69 µM],3.0%,-5%,-17%
Cn1c2ccc(Cl)cc2c2nc3ccccc3nc21,.,-11%,.,?,13%,0.8%,-31%,2%
CCC1(c2ccc(F)cc2)NC(=O)N(CC(=O)N2CCc3ccccc3C2)C1=O (stereo not given),30%,1%,16%,.,-7%,.,.,-16%
Cc1ccc(SCCn2nc(C(=O)O)c3ccccc3c2=O)cc1,?,-1%,-26%,.,22%,.,.,-15%
CC(C(=O)Nc1sc2c(c1C(=O)NCc1ccco1)CCCC2)N1C(=O)c2ccccc2C1=O (stereo not given),-23%,9%,12%,?,22%,0.9%,4%,14%
COc1ccccc1N1CCN(C(=O)c2ccc(S(=O)(=O)N3CCCCC3)cc2)CC1,?,-3%,1%,?,8%,-0.8%,-7%,?
Cc1ccc(S(=O)(=O)N2CCN(Cc3ccccc3Cl)CC2)cc1,.,.,-20%[46.1 µM],2%,.,-2.2%,.,-24%
